Bioassay records: PubChem BioAssay, National Center for Advancing Translational Sciences (NCATS)
TRPML1 inh – human mucolipin-1 channel inhibition; Q9GZU1; AID 624415; actives 0.02% (n = 390,000); TRPML1-inducible cells, Ca2+ dye fluorescence, FDSS; stronger effect = lower value; inhibition of EC80 agonist-evoked calcium signal; activity change, negative = inhibition, % (test concentration not listed); in the data active means activity change below about -50%; inconclusive means about -30% to -50%; inactive means above about -30%;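 note: stimulus is agonist 54-4 at its EC80 concentration; % is set by controls: 0 for no effect and ±100 for the full control effect; compound concentration not given in the record; the text of the record puts the active cut at -80%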
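TRPML1-DL cells, Tet-induced overnight (~16 h, 37 °C) at 1,500 cells/well, were loaded with Ca8 no-wash dye plus quencher for 45-90 min at room temperature. Compounds were pinned during FDSS kinetic reading; agonist 54-4 at EC80 (4 uM final) then added.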
TRPML1 agonist – activates the human TRPML1 channel; Q9GZU1; TRPML1-expressing cells, Ca2+ dye fluorescence, FDSS; host cell line not named in the record; reference of the full effect not given here; activation, % (test concentration not listed); actives 0.12% (n = 410,000); in the data active = activation above about 50%; inconclusive = about 30% to 50%; inactive = below about 30%; note: 0% is about no effect; the text of the record puts the active cut at 80%
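Agonist activity was taken from a 110 s kinetic Ca2+ dye read on the FDSS after pinning compounds onto TRPML1-DL cells. The cells were seeded at 1,500/well with Tet inducer, incubated about 16 h, then dye-loaded at room temperature.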
TRPV1 PAM – enhances activation of the human vanilloid receptor TRPV1. Q8NER1. TRPV1-expressing cells, Fluo-8 calcium influx, capsaicin EC20 potentiation; host cell line not named in the record; control for the full effect not named in the record. potentiation, % at 8.33 µM. actives 0.02% (n = 320,000); active means potentiation above 80%; inconclusive means 30% to 80%; inactive means below 30%; note: 0% is about no effect
Target sequence (Q8NER1 whole entry, looked up): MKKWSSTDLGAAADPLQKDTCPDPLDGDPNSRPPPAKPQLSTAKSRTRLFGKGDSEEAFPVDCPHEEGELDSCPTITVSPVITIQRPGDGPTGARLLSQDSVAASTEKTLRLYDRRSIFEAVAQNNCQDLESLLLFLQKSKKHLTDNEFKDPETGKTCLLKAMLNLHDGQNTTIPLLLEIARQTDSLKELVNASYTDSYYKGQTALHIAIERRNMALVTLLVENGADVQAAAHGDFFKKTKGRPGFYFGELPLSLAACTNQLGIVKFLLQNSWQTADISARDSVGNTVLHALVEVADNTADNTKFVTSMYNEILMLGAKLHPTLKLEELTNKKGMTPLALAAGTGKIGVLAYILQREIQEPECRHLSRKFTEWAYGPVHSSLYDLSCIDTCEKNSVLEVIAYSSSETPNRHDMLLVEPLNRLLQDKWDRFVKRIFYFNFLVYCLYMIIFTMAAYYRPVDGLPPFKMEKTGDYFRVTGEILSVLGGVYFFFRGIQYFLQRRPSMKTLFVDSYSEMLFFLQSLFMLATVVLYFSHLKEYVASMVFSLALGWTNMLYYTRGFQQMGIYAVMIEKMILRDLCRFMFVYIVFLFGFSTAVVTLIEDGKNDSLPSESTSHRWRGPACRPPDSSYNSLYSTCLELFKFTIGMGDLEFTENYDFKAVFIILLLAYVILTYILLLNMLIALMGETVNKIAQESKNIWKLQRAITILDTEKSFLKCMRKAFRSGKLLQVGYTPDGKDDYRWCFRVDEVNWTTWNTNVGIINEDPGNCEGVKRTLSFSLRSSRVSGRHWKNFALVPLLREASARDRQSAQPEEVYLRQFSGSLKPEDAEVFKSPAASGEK
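Fluo-8 calcium influx in TRPV1-expressing cells, kinetic read (ex 480/em 520 nm). Compound added and read 3 min for agonist activity, followed by capsaicin at EC20 final and 2 min further read for enhancement.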
Menin MLL FP FL – inhibitors of human menin-MLL interaction, wild-type MLL peptide; Fluorescence polarization, fluorescein-MLL peptide displacement from menin; FP activity change, % at 61.4 µM; 290,000 tested, under 10 active; AID 1766; inconclusive = falling polarisation curve, or a change in total fluorescence; inactive = total fluorescence flat and polarisation flat or rising; no compound was filed as active; the % refers to the polarisation; negative = inhibition;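 note: % of control where 0% means no effect; inhibitors lower the polarisation; unlabelled MLL peptide was the positive control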
PINK1 modulator – changes PINK1 expression | PINK1 immunofluorescence, high-content cytometry, 24 h | AID 624263 | Potency, µM (titrated, usually from 76.6 µM), without a hit: top-dose activation (PINK1 increase), actives largely listed as activators | actives 0.2% (n = 410,000); active = well fitted activation curve with a large enough effect; inconclusive = small, poorly fitted or top-dose-only effect; inactive = flat fitted curve, though single readings scatter; cell line not stated here;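 note: potency is the fitted concentration of half-maximal effect; % of control where 0% means no effect; nearly all actives have a fitted effect of over 65% in size; a mitochondrial uncoupler was the plate control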
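Measures PINK1 amount and localization on or inside mitochondria by immunofluorescence. Stable cells get compounds at 5 concentrations for 24 hours before fixation and staining; CCCP controls included.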
Sfp inh – inhibitors of Bacillus subtilis Sfp phosphopantetheinyl transferase | Q9F4F7 | Biochemical Sfp PPTase activity, qHTS | Potency, µM, inactives show max response, negative = inhibition, hits mostly inhibitors | actives 3.5% (n = 310,000) | AID 1490; active = well fitted inhibition curve with a large enough effect; inconclusive = small, poorly fitted or top-dose-only effect, or another doubt; inactive = no such curve, though single readings can be large or run the other way;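 note: the enzyme is Sfp with the accession as filed and its product quenches rhodamine fluorescence; potency is the fitted concentration of half-maximal effect; 0% = enzyme reaction without inhibitor and -100% = no enzyme wells; top concentration of the series not given in the record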
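With Hepes-Na pH 7.6 buffer containing 10 mM MgCl2, Sfp (15 nM) modified BHQ-2-YbbR (12.5 uM) using rhodamine-CoA (5 uM). Two reads 30 minutes apart at 525/598 nm yielded each well's rate.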
ClpP mod – qHTS Assay for Activators of ClpP; ATP-dependent Clp protease proteolytic subunit (Bacillus subtilis (strain 168)), P80244; purified B. subtilis ClpP, FRET peptide cleavage, 20 min; Potency, µM (series often up to 57.5 µM), for inactives: at the top dose activity change, negative = active; actives 1.9% (n = 340,000); AID 651965, 2013; active = well fitted falling curve with a large enough effect; inconclusive = small, poorly fitted or top-dose-only effect; inactive = no such curve, though single readings can be large or run the other way; note: potency is the fitted concentration of half-maximal effect; the source files actives as falling curves though it sought activators and does not explain the sign; nearly all actives have a fitted effect of over 65% in size; many hits overshoot -100%
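Buffer: 100 mM Tris/HCl pH8, 100 mM KCl, 0.05% low protease BSA, 2.5% glycerol, 0.01% Tween-20. ClpP 10 microg/mL final; 20 min RT; delta FRET normalized to ADEP and DMSO controls.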
* marks the source's active call; other numbers are inactive results; ? = inconclusive; . = not tested or not shown; & = joins results of further samples; ! = not confirmed by another sample; [ ] = dose if it differs, or a comment.

Start of the data: the first 2 compounds as a preview:
SMILES	TRPML1 inh	TRPML1 agonist	TRPV1 PAM	Menin MLL FP FL	PINK1 modulator	Sfp inh	ClpP mod
Cn1c(SCc2nc(-c3ccc(Cl)cc3)no2)nnc1-c1ccco1	-7.2	0.1	.	3.5	2.2%	2.2%	-1.0%
CCCN(CCO)Cc1cccc(Br)c1	10.8	-0.1	-1.0	3.5	-2.3%[38.3 µM]	-18.0%	-0.6%

The list itself, previewed entries included:
SMILES	TRPML1 inh	TRPML1 agonist	TRPV1 PAM	Menin MLL FP FL	PINK1 modulator	Sfp inh	ClpP mod
Cn1c(SCc2nc(-c3ccc(Cl)cc3)no2)nnc1-c1ccco1	-7.2	0.1	.	3.5	2.2%	2.2%	-1.0%
CCCN(CCO)Cc1cccc(Br)c1	10.8	-0.1	-1.0	3.5	-2.3%[38.3 µM]	-18.0%	-0.6%
CCOC(=O)c1ccc(-n2c(N)c(C(=O)OC)c3nc4ccccc4nc32)cc1	4.2	-0.4	.	.	1.2%	.	2.82µM*
S=C(Nc1cccnc1)Nc1ccccn1	19.9	0.2	-37.7	0.6	2.5%	-19.5%	-1.8%
CCC(c1nnc(SCC(=O)Nc2ccc(S(N)(=O)=O)cc2)n1Cc1ccccc1)N(C)C (configuration not stated)	2.6	0.5	2.3	1.3	0.3%	11.2%	.
S=c1[nH]nc(-c2cc(-c3ccccc3)n[nH]2)n1/N=C/c1ccc(Cl)c(Cl)c1	48.0	2.3	.	0.4	10.1%	-24.0%	.
Cc1ccccc1-n1nc2c(c1NC(=O)C(C)(C)C)CS(=O)(=O)C2	.	.	14.1	3.2	1.5%	18.3%	-1.0%
Cn1c(-c2ccc(F)cc2)cnc1SCC(=O)N1CCCc2ccccc21	25.6	1.4	-15.3	0.3	1.2%	-6.6%	2.9%
Cc1ccc(C(=O)Nc2ccc(C(F)(F)F)n(C)c2=O)cc1	-17.4	-1.5	-16.5	-2.4	-2.7%	5.8%	4.2%
Cc1ccc(-n2ncc(-c3n[nH]c(=S)o3)c2N)cc1C	-1.1	-1.0	.	.	-1.8%	.	-2.6%
CCNc1nc(NCC)nc(N(C)N)n1	2.5	-0.6	.	1.2	-0.3%	10.4%	2.5%
COc1ccc(SCCCn2c(=O)c3c(ncn3C)n(C)c2=O)cc1	-7.5	0.0	29.3	5.6	0.7%	8.2%	.
CN(C)S(=O)(=O)c1ccc2c(c1)N(CC(=O)Nc1ccc(F)cc1)C(=O)CS2	-8.6	0.3	.	.	1.7%	.	-0.5%
CC(NC(=O)C(c1ccccc1)c1ccccc1)c1ccccc1 (configuration not stated)	-3.3	2.9	.	.	5.1%	.	-0.4%
O=c1ccc2cc(S(=O)(=O)N3CCN(c4cc(Cl)ccc4Cl)CC3)ccc2o1	-10.3	1.7	12.5	-0.6	0.3%[38.3 µM]	15.8%	-2.3%
CCOc1ccc(OCC)c(NC(=O)Cn2cccc2)c1	18.5	2.1	-9.7	0.8	3.1%	8.9%	-10.5%
Cc1cccc(C)c1OCC(=O)N/N=C/c1ccncc1	-8.0	3.6	-17.6	-1.4	-2.7%	10.8%	-0.8%
CN(CC(=O)Nc1ccccc1Cl)C(=O)COC(=O)Cc1ccc(F)cc1	9.7	-0.1	-1.3	.	-1.6%	16.5%	-0.2%
CN(C)N1C(N)=C(C#N)C(c2cccc([N+](=O)[O-])c2)C2=C1CC(C)(C)CC2=O (configuration not stated)	-10.4	-1.6	-12.1	1.2	8.8%	17.6%	0.1%
Cc1cc2[nH]c(=O)c3ccccc3n2n1	26.2	0.1	-1.3	0.5	-1.9%	5.2%	?
O=C(CSCc1ccc(Cl)cc1)Nc1ccc2c(c1)OCO2	-13.3	3.5	-12.7	3.8	-1.4%	15.7%	1.3%
CCC(C)(C)NC(=O)CN(Cc1ccc(OC)cc1)C(=O)CCC(=O)Nc1nccs1	14.5	-0.3	-13.6	.	-1.8%	6.0%	.
O=C(N1CCC(n2nc(-c3ccccc3)oc2=O)CC1)C1(c2ccccc2)CC1	21.5	0.8	-16.6	-4.9	0.5%	-9.9%	-2.6%
Cc1ccc(-n2nc3c(=O)n(C(C)C(=O)NCc4ccccc4C)nc(C)c3c2C)cc1 (configuration not stated)	2.8	1.6	.	.	0.0%	.	-3.3%
CN(C)c1ccc(/C=C2\C(=O)Nc3ccccc32)cc1	.	0.5	.	32.1[activator]	0.5%	56.2µM*!	0.1%
Cc1c(C2N3CC4(C)CN2CC(C)(C3)C4=O)c2ccccc2n1C (configuration not stated)	13.1	0.1	-4.4	-0.1	.	7.4%	-2.4%
Cc1n[nH]c(C)c1S(=O)(=O)N1CCN(S(=O)(=O)c2cccc(F)c2)CC1	32.9	0.6	8.2	.	-0.3%	.	-2.2%
COc1ccc2c(c1)[nH]c1c(=O)n(Cc3ccco3)cnc12	20.6	2.0	-4.2	4.8	10.9%	-19.9%	0.1%
C/C(N)=C(/C#N)C(=O)CSc1nc2ccccc2c(=O)n1Cc1ccc(C)cc1	8.5	-0.7	-19.7	2.8	6.6%	?	.
CC(C)c1ccc(/C=N/n2nnnc2Nc2ccccc2)cc1	-5.7	0.6	-3.3	0.4	0.9%	5.8%	-27.8%
COc1ccccc1CNC(=O)c1ccccc1SCC(=O)NCc1ccco1	8.8	0.3	7.4	.	-7.5%	.	-3.9%
Cc1c(C(=O)OCC(C)C)[nH]c2c1C(=O)CC(c1ccco1)C2 (configuration not stated)	50.3	1.6	-16.9	0.2	5.9%	39.8µM*	-0.6%
CCOc1ccc(NC(=O)CCn2nc(C)c(S(=O)(=O)N3CCCCC3)c2C)cc1	-4.4&-0.9	-0.7&0.8	-3.4	-0.2	-0.9%&0.8%	1.0%	-0.4%&0.9%
CC(C)C[C@H]1CN([C@@H](CC(C)C)CN2CCC[C@H]2CN2C(=O)C(=O)NC[C@@H]2Cc2ccccc2)C(=O)C(=O)N1CCc1ccccc1	.	-0.5	.	.	0.0%	.	0.4%
O=C(CSc1cccc[n+]1[O-])Nc1cc(S(=O)(=O)N2CCOCC2)ccc1Cl	7.0	-0.1	-1.2	0.8	-0.3%	-0.6%	-1.3%
COCC1CCCC1OS(N)(=O)=O (configuration not stated)	9.4	0.1	-2.7	-0.6	-0.1%	23.6%	-3.0%
Cc1cs/c(=N\N=C\c2ccccc2)n1Cc1ccco1	-7.6	0.9	5.6	3.3	1.4%	-20.1%	1.8%
O=C(c1ccc2[nH]ccc2c1)N1CCCC(Nc2ccccc2)C1 (configuration not stated)	-12.1	-1.2	7.0	-1.0	-0.4%	-2.6%	-2.8%
O=C(NC1CCN(S(=O)(=O)c2ccccc2)CC1)c1cccc(F)c1	16.3	-0.5	-7.0	0.3	6.2%	-5.6%	-2.2%
COc1ccc(-c2nnc3n2N(C(C)=O)C(c2ccc(Cl)c(Cl)c2)=C(C(C)=O)S3)cc1	25.0	2.2	.	.	0.0%	.	-0.6%

Record cards, from the list above:
CCC(C)(C)NC(=O)CN(Cc1ccc(OC)cc1)C(=O)CCC(=O)Nc1nccs1 as listed: TRPML1 inh: 14.5; TRPML1 agonist: -0.3; TRPV1 PAM: -13.6; Menin MLL FP FL: .; PINK1 modulator: -1.8%; Sfp inh: 6.0%; ClpP mod: .
COc1ccccc1CNC(=O)c1ccccc1SCC(=O)NCc1ccco1 as listed: TRPML1 inh: 8.8; TRPML1 agonist: 0.3; TRPV1 PAM: 7.4; Menin MLL FP FL: .; PINK1 modulator: -7.5%; Sfp inh: .; ClpP mod: -3.9%

Next part.
SMILES	TRPML1 inh	TRPML1 agonist	TRPV1 PAM	Menin MLL FP FL	PINK1 modulator	Sfp inh	ClpP mod
O=[N+]([O-])c1cc(-c2cnc3ccccc3n2)ccc1Oc1ccc(Br)cc1	74.0	-0.2	.	0.3	0.2%	-3.7%	-3.0%
CC(=O)Nc1ccc(S(=O)(=O)NC2CC3CCC2C3)cc1 (configuration not stated)	-15.9	0.3	-20.0	0.6	1.4%	25.4%	-4.1%
NS(=O)(=O)c1ccc(CCNc2nc3c(-c4cccc(F)c4)nnn3c3ccc(Cl)cc23)cc1	-4.2	-0.5	.	.	1.9%	.	-21.9%
CC1(C(=O)NS(=O)(=O)c2ccc(Cl)cc2)CCN1C(=O)Cc1ccccc1 (configuration not stated)	4.0	-0.9	.	.	-0.7%	.	0.5%
COc1cc2c(cc1OC)CN(CC(=O)Nc1ccc(Cl)cc1Cl)CC2	-1.6	0.9	-4.0	3.6	-0.2%	-8.2%	1.0%
Nc1cc(-c2ccccc2)nn1S(=O)(=O)c1ccc(Br)cc1	-5.4	-1.4	-3.9	-1.8	22.1%	-1.8%	-0.5%
CC(CC(=O)NNC(=O)c1cccc(Cl)c1)c1ccccc1 (configuration not stated)	-4.5	0.3	-2.3	-9.7	1.3%	4.5%	.
COc1ccccc1NS(=O)(=O)c1cc(C(=O)NCCCN2CCCC2=O)ccc1C	14.8	1.4	.	.	0.6%	.	0.3%
